# YopH inh: YopH tyrosine phosphatase inhibitors, primary screen, biochemical, fluorescence Ex485/Em525. YopH tyrosine phosphatase [Yersinia enterocolitica]. inhibition, %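 (about 10 µM by stock and volumes)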. hit rate 0.16% among 140,000. AID 898, 2007;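 active = inhibition of 50% or more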;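 also: controls were vehicle for no effect and minimum signal wells for full effect; inactives centre near -20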
# Mtb growth: M. tuberculosis H37Rv growth inhibitors, H37Rv strain (AID 1626). one-dose inhibition, % at 10 µM; IC50 in µM for titrated hits. M. tuberculosis H37Rv growth inhibition; higher % means a stronger effect. hit rate 0.95% among 220,000;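 active = confirmed in a dose series; inconclusive = inhibition above 80% but not taken into the dose series; inactive = below 80% or under 30% at every dose of the series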;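 also: bacteria incubated seven days before Alamar blue readout; 0% = bacteria only wells and 100% = bacteria with antibiotic wells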
# RecA splice inh: Mtb RecA intein splicing inhibitors, primary screen, biochemical, fluorescence, HTS; Protein RecA (Mycobacterium tuberculosis (strain ATCC 25618 / H37Rv)), P9WHJ3; cell-free RecA intein splicing; inhibition, %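 (about 9 µM by stock and volumes)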; hit rate 0.75% among 290,000; AID 2221, 2009; in the data active = inhibition above about 30%; inconclusive = no clear call, values can overlap the other calls;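 also: 0% = vehicle wells and 100% = reference inhibitor control wells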
# Target sequence (P9WHJ3 whole entry, looked up, canonical isoform): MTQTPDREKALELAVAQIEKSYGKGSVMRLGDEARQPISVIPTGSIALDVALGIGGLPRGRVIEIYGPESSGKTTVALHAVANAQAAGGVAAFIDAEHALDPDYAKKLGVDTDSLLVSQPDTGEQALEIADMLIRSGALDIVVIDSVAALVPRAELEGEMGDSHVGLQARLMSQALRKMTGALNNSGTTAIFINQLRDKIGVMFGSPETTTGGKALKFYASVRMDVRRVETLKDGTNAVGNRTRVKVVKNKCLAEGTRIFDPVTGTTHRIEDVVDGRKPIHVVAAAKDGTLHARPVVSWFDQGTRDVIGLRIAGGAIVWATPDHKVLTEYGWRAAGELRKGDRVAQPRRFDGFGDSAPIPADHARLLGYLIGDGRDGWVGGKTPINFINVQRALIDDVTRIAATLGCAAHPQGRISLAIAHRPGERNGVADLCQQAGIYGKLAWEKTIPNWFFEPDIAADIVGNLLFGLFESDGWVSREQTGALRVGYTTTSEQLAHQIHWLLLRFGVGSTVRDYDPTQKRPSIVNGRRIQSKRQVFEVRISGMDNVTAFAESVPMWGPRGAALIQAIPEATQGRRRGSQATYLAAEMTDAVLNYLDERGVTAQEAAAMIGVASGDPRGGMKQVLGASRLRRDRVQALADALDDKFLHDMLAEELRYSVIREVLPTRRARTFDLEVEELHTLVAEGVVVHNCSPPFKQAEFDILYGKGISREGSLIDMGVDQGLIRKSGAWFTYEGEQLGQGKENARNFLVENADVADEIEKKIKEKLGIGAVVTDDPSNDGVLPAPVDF
# Arbovirus inh: antivirals against arbovirus infection, primary screen, cell-based, full library, 10K replicate subset. AID 1251, 2008. inhibition, % at 10 µM. arbovirus infection cell-based antiviral screen. hit rate 0.37% among 200,000;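 active = inhibition from about 30%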;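 also: bluetongue infection of BSR cells; cell survival read as ATP light after 72 h; 0% = infected wells without compound and 100% = uninfected wells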
# Mtb bLac sens: beta-lactam sensitization of Mtb H37Rv, H37Rv | hit rate 0.27% among 330,000 | M. tuberculosis H37Rv growth with meropenem, percent inhibition; hits of this screen are not shown here | AID 434955, 2010 | inhibition, % at 25 µM;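 active = about 74% or more and at least 40 points above the plate without the antibiotic, then above 30% in a dose series; inconclusive = first-round hits that could not be retested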;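 also: growth measured after seven days incubation then overnight dye step; 0% = bacteria only wells and 100% = bacteria with antibiotic; twin plates without the antibiotic show which effects depend on it; some results filed as inactive read as strong as hits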
# Arbovirus inh repeat: further read-out of Arbovirus inh, marked with its call; inhibition, %; measured here: 10K subset replicate screen; many hits read low in the repeat;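 first of two repeat runs on a subset; 0% = infected and 100% = uninfected wells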
# Starred values were filed as active, the others as inactive; ? = inconclusive; . = no result given. A portion of the library; rates above refer to the full screens.
SMILES,YopH inh,Mtb growth,RecA splice inh,Arbovirus inh,Mtb bLac sens,others
CC1(C)CC(=O)c2sc(NS(=O)(=O)c3ccc(F)cc3)nc2C1,.,-3%,-1.2,-1,6,
Cc1c(N/C(=N/S(=O)(=O)c2ccc(F)cc2)c2ccccc2)c(=O)n(-c2ccccc2)n1C,.,1%,3.4,0,3,
CC(C)=CCC/C(C)=C/C(=O)O,.,-12%,-0.2,.,-10,
Cc1nnc(SCC(=O)N(C)C2CCS(=O)(=O)C2)n1Cc1ccccc1 (stereo not given),.,-7%,0.5,-3,-1,
CCOC(=O)c1[nH]c2ccc(OC)cc2c1NC(=O)c1nonc1C,-18,-3%,.,-6,5,
CN1CCN(NC(=O)c2ccc(Cl)cc2Cl)CC1,-25,-5%,0.6,6,-4,
CCOC(=O)C(C)Oc1ncnc2cccc(F)c12 (stereo not given),.,4%,0.4,-2,0,
COc1ccc(CCNC(=O)C2CC(=O)N(c3ccc(C)cc3)C2)cc1OC (stereo not given),.,.,0.9,.,-7,
CNC(=O)c1ccsc1NC(=O)C1CCN(S(=O)(=O)c2cccs2)CC1,.,.,0.8,.,-7,
CC(CC(=O)NCC1CCCO1)c1ccccc1 (stereo not given),-34,-1%,2.2,-1,-1,
COc1ccc(NC(=O)Nc2ncn(Cc3cccc(C(F)(F)F)c3)n2)cc1OC,-17,-4%,1.8,-5,-4,
COc1ccc2ccccc2c1CNc1nnnn1C,.,3%,-0.3,2,2,
O=C1COc2ccc(C(=O)CSc3nnc(Cc4ccccc4)o3)cc2N1,.,.,-1.1,.,64,
Cn1c(=O)[nH]c(=O)c2c1nc(NCCO)n2CCOc1ccccc1,.,.,0.5,.,4,
O=C(NCCSc1ncc(-c2ccc(F)cc2)[nH]1)c1ccc2c(c1)OCO2,.,.,-0.9,.,-2,
O=C(NCCc1ccccc1)C(=O)NCC1OCCN1S(=O)(=O)c1cccs1 (stereo not given),.,.,3.6,.,5,
C=CCSC1=N/C(=C\c2ccc(C)o2)C(=O)S1,-7,-15%,-2.0,-4,-2,Arbovirus inh repeat=-6
Cc1nn(-c2cccc(Cl)c2)nc1C(=O)O,.,-11%,1.1,6,-6,
Cc1ccc(O)c(-c2cc(C(=O)Nc3ccc(S(=O)(=O)N4CC(C)OC(C)C4)cc3)[nH]n2)c1 (stereo not given),2,-2%,-3.6,12,-7,
CN(C)C1(CNCC(O)c2ccccc2)CCCCC1 (stereo not given),.,.,-1.9,.,-5,
COC(=O)c1ccc(N)c(CS(=O)(=O)c2ccc(Cl)cc2)c1,.,.,-1.0,.,-1,
CCOc1ccc(N2CC(C(=O)NCc3ccc(F)cc3)CC2=O)cc1 (stereo not given),-46,4%,1.4,1,-3,
CC(NC(=O)C1CCC1)c1ccc2c(c1)OCO2 (stereo not given),-36,-8%,-2.4,8,0,Arbovirus inh repeat=2
COc1ccc(C(=O)c2cn[nH]c2-c2ccc(C)cc2O)cc1,.,.,-0.7,.,-4,
COc1cc(Sc2ccc(C)cc2)c(OC)cc1N,-27,-6%,21,1,8,

# (further entries)
SMILES,YopH inh,Mtb growth,RecA splice inh,Arbovirus inh,Mtb bLac sens,others
Cc1ccc(C(=O)COc2ccccc2-c2ccccc2)cc1,-21,8%,8.6,12,93,
CN(C)/C=N/c1nc(-c2ccc3ccccc3c2)cs1,.,.,0.9,.,58,
CC(=O)Nc1ccc(SCC(=O)Nc2ccccc2Oc2ccccc2)cc1,-22,16%,2.6,-11,6,
O=C(C1CCN(S(=O)(=O)N2CCC3(CC2)OCCO3)CC1)N1CCOCC1,-6,-2%,0.1,0,2,
CN1CCN(Cc2cc(COCc3ccccc3)c3cccnc3c2O)CC1,-26,0%,.,-38,0,
O=C(CCN1C(=O)/C(=C/c2ccccc2F)SC1=S)NCCCN1CCOCC1,.,.,4.2,.,3,
COc1ccccc1C1=NOC(Cn2c(NCCCO)nc3c2c(=O)n(C)c(=O)n3C)C1 (stereo not given),.,-4%,.,.,-2,
CC(C)(C)n1nnnc1C(c1cccc(C#N)c1)N1CCCc2ccccc21 (stereo not given),-36,-2%,4.3,-21,7,
Cc1ccc(-c2nnn(CC(=O)N(CC3CCCO3)C(C(=O)NC3CCCCC3)c3ccc(F)cc3)n2)o1 (stereo not given),-22,-1%,2.7,-11,14,
Cc1cccc(NC(=O)c2ccc([N+](=O)[O-])s2)n1,.,.,1.6,.,100,
CN1C(CC(=O)Nc2ccc(Br)cc2)c2ccccc2CC1(C)C (stereo not given),.,0%,.,-8,-7,
COCCCC1CCN(Cc2nc(-c3ccccc3)no2)CC1,.,2%,-0.6,11,-4,
O=C(COc1ccc2c(-c3ccccc3)cc(=O)oc2c1)NCc1ccccn1,.,.,3.3,.,-8,
O=C1C2C3C=CC(C3)C2C(=O)N1c1ccc2ccccc2c1 (stereo not given),.,.,2.2,.,31,
Cc1cccc(CSC2=NCCN2C(=O)c2ccc(S(=O)(=O)N(C)C)cc2)c1,.,2%,1.8,16,0,
CC(C)c1ccc(OCC(=O)NNC(=S)NC(=O)c2ccco2)c(Br)c1,.,.,2.4,.,99,
COc1cccc(S(=O)(=O)NCc2ccc(C(=O)NCc3ccccn3)cc2)c1,.,.,-0.5,.,2,
COc1ccc(N2CCN(c3cc(C)c4cccc(C)c4n3)CC2)cc1,.,5%,5.2,2,13,
O=C(N/N=C\c1ccc(CNS(=O)(=O)c2ccccc2)o1)C(=O)Nc1ccc(F)cc1,-44,?,3.1,-4,94,
O=[N+]([O-])c1ccc(Cl)cc1N1CCOCC1,.,8%,0.6,-3,1,
COc1ccc(OC)c(NC(=O)CSc2ccc3nnc(-c4ccccn4)n3n2)c1,.,.,2.2,.,5,
Cc1c(-c2ccccc2)sc2nc[nH]c(=S)c12,.,90%,-0.7,21,-1,
COc1ccc(-n2nnc3c(=O)n(CC(=O)Nc4cc(C)on4)cnc32)cc1,.,0%,1.5,-6,5,
OC1CCCN(c2c3c(nc4cc(-c5cccc(Cl)c5)nn24)CCC3)C1 (stereo not given),-36,10%,2.1,-8,7,
C=CCN(c1ccccc1)S(=O)(=O)c1cc2c(cc1C)N(C)CCO2,.,.,6.0,.,0,

# Additional records:
SMILES,YopH inh,Mtb growth,RecA splice inh,Arbovirus inh,Mtb bLac sens,others
Cc1cccn2c(=O)c3cc(S(=O)(=O)c4ccc(F)cc4)c(=N)n(Cc4ccco4)c3nc12,.,-4%,-28,.,-5,
Cc1ccc(NC(=O)CSc2nnc(Cn3c(=O)sc4ccccc43)n2C)cc1,-27,7%,-1.0,6,-2,Arbovirus inh repeat=1
O=[N+]([O-])c1cccc(NC(=S)N2CCCC2)c1,.,.,-1.8,.,-2,
CSCc1ccc(C(=O)NCc2ccccc2)cc1,-17,-1%,0.5,-5,-4,
Cc1ccc(C)c(NC(=O)C2CC(O)CN2C(=O)OC(C)(C)C)c1 (stereo not given),-41,-12%,-1.6,3,-2,
O=C(NC(=S)NCc1nc2ccccc2[nH]1)c1ccccc1F,.,3%,.,-1,8,
Cc1ccc(N(C(C)C(=O)Nc2ccc3c(c2)OCO3)S(C)(=O)=O)cc1 (stereo not given),-19,0%,3.5,-3,-2,
O=C(CCS(=O)(=O)c1ccc(Br)s1)N1CCc2ccccc21,-28,-4%,0.1,0,0,
CCOC(=O)c1ccc(CS(=O)c2ccc(Cl)cc2)o1 (stereo not given),-37,-2%,1.9,-5,-5,
CCc1cc2cccc(C)c2nc1SCC(=O)NNC(=O)c1ccco1,-58,-5%,-0.4,2,0,
Cc1ccc(Nc2nc(N)nc(CN3CCN(Cc4ccc5c(c4)OCO5)CC3)n2)cc1C,.,0%,0.2,9,.,
CCCOc1ccc(C(=O)N2CCN(Cc3ccc4c(c3)OCO4)CC2)cc1,.,.,6.8,.,2,
O=C(Nc1ccccc1N1CCOCC1)c1cccc(NS(=O)(=O)c2ccc(F)c(F)c2)c1,.,4%,-0.2,6,-2,
CCN(CC)C(=O)C1CCCN(Cc2nc(-c3cnccn3)no2)C1 (stereo not given),.,-6%,2.9,-2,-5,
Cc1c(O)ccc(C(=O)CN2CCN(c3ccccc3F)CC2)c1O,.,.,-0.9,.,?,
COc1ccc(/C=N\NC(=O)c2cc3c(ccc4ccccc43)o2)cc1O,.,.,-5.2,.,1,
Cc1ccc(CC2CC(=O)N(C(Cc3ccccc3)C(=O)O)C2=O)cc1 (stereo not given),.,-4%,3.2,-2,-1,
CCOC(=O)C1(Nc2nccs2)Sc2ccccc2NC1=O (stereo not given),-62,-10%,5.7,-1,19,
CCCCNC(=O)C1CCN(Cc2ccccn2)CC1,-24,-6%,-1.8,1,-7,
CCN(CC)Cc1ccccn1,.,8%,0.1,.,-5,
COc1cccc(NC(=O)NCCc2ccc(Cl)cc2)c1,.,10%,5.9,-6,3,
CCc1ccc(C(=O)NN=C2CCCCCC2)s1,.,.,1.4,.,10,
Cc1ccc(-c2nnc3ccc(SC(C)C(=O)O)nn23)cc1 (stereo not given),-32,4%,-0.4,6,0,Arbovirus inh repeat=6
O=C(c1cc2ccccc2c(=O)o1)N1CCCc2ccccc21,-20,-12%,-1.0,-1,1,
O=[N+]([O-])c1ccccc1S(=O)(=O)N1CCN(Cc2ccsc2)CC1,.,-3%,-5.2,8,-7,

# The last two compounds of the section above come first, to join the parts.
SMILES,YopH inh,Mtb growth,RecA splice inh,Arbovirus inh,Mtb bLac sens,others
O=C(c1cc2ccccc2c(=O)o1)N1CCCc2ccccc21,-20,-12%,-1.0,-1,1,
O=[N+]([O-])c1ccccc1S(=O)(=O)N1CCN(Cc2ccsc2)CC1,.,-3%,-5.2,8,-7,
C/C(=C\C(=O)c1cccnc1)Nc1ccc(O)cc1,-5,-6%,-11,-18,-8,
CCCC(=O)C1=C(N(C)c2ccccc2)CC(C)(C)C(C(=O)OC)C1=O (stereo not given),12,3%,2.6,7,0,Arbovirus inh repeat=4
Cc1cccc(N2CCN(C(=O)Cn3nc(C)n4cccc4c3=O)CC2C)c1 (stereo not given),.,.,0.4,.,0,
COc1ccc(NC(=O)Nc2c[nH]c(=O)[nH]c2=O)cc1,.,.,1.9,.,-1,
c1ccc([C@@H]2CO2)cc1,.,-8%,12,.,-2,
CC(=O)Nc1ccc(N(C)S(C)(=O)=O)cc1,-3,-4%,-0.4,0,-1,
CC(=O)N1CCN(CC(=O)c2ccc(Br)cc2)CC1,-13,-1%,0.1,4,3,
OC(Cc1ccccc1)(c1ccccc1)C1CN2CCC1CC2 (stereo not given),-14,-4%,3.4,-20,-4,
Cc1cc(C)n(-c2nc(NCCO)c3c4c(sc3n2)CCCC4)n1,-60,2%,0.0,-1,14,
COc1cc(/C=N/n2nnnc2N)ccc1O,-10,-1%,-4.0,2,-2,
CC(=O)N[C@H]1[C@H](OCc2ccccc2F)O[C@H](COC(C)=O)[C@@H](OC(C)=O)[C@@H]1OC(C)=O,.,-2%,-2.1,.,-6,
CCOc1ccc(NC(=O)NN2C(C)CCCC2C)cc1 (stereo not given),.,.,1.5,.,-2,
CC(=O)N1CCc2cc(S(=O)(=O)NC(CC(C)C)C(=O)Nc3cc(C)ccn3)ccc21 (stereo not given),-19,5%,1.5,1,-3,
CNC(=O)c1cc(S(=O)(=O)Nc2ccc(C)cc2C)ccc1C,.,.,1.8,.,5,
CC(C)Cc1nnc(NC(=O)CSc2ncn[nH]2)s1,25,2%,-7.2,8,8,
O=C(c1cccc(N2CCNC2=O)c1)N1CCCC(Nc2cccc(F)c2)C1 (stereo not given),.,.,-1.6,.,-8,
O=C1/C(=C/c2ccccc2Cl)SC(=S)N1CCC(=O)N1CCCCC1CCO (stereo not given),.,.,19,.,54,
COCCn1c(SCC(=O)N2CC(=O)Nc3ccccc32)nnc1-c1ccoc1C,-22,-4%,5.2,-2,-4,
CCn1c(SCC(=O)N/N=C/c2ccccc2OCC(=O)O)nnc1-c1ccc(OC)cc1,.,7%,-4.5,-6,-8,
COc1ccc(CNC(=O)C(C)n2ccc3cc(S(=O)(=O)N4CCCCCC4)ccc32)cc1 (stereo not given),.,.,3.7,.,-4,
CCn1c(COc2ccc(=O)n(-c3ccccc3)n2)nnc1SCc1cccc(OC)c1,-28,-5%,-1.4,8,6,

# Pulled by structure from the list above:
SMILES,YopH inh,Mtb growth,RecA splice inh,Arbovirus inh,Mtb bLac sens,others
Cc1ccc(-c2nnn(CC(=O)N(CC3CCCO3)C(C(=O)NC3CCCCC3)c3ccc(F)cc3)n2)o1 (stereo not given),-22,-1%,2.7,-11,14,
COCCn1c(SCC(=O)N2CC(=O)Nc3ccccc32)nnc1-c1ccoc1C,-22,-4%,5.2,-2,-4,
COc1ccc2ccccc2c1CNc1nnnn1C,.,3%,-0.3,2,2,
c1ccc([C@@H]2CO2)cc1,.,-8%,12,.,-2,

# Compound activity deposited in PubChem by several laboratories.
